Vaccinia inh = blocks a specific stage of Vaccinia orthopoxvirus infection; Vaccinia-infected cells, mCherry/Venus stage reporter fluorescence; active compounds read low; some inactives read as strong as hits; activity change (mCherry), % (test concentration not listed); 89,000 compounds, 0.01% hits;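 active = mCherry past -33% and 40 or more points under the early reporter, replicates agreeing; inconclusive = past -33% without that gap or agreement; tested in A549 cells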;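 note: scaled between vehicle wells and reference inhibitor wells; 23 nL library stock went into each well; one replicate is shown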
Vaccinia inh Venus = also measured in Vaccinia inh; calls as there; activity change (Venus), %; measured here: Venus reporter, other viral stage;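 negative = less Venus signal; first of two replicates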
* = called active by the depositor; u = inconclusive; x = no result given. These rows are one share of the data; rates above refer to the full screens.

mol	Vaccinia inh	Vaccinia inh Venus
C[C@@H]1CN([C@H](C)CO)S(=O)(=O)c2ccc(-c3ccncc3)cc2O[C@@H]1CN(C)C	11.9	5.1
N#C[C@@H]1N[C@@H](CO)[C@@H]1c1ccc(C#CC2CCCC2)cc1	-0.1	4.0
COc1ccccc1C#Cc1cnc2c(c1)C(=O)N([C@H](C)CO)C[C@H](C)[C@@H](CN(C)C(C)=O)O2	18.2	13.8
C[C@H](CO)N1C[C@H](C)[C@H](CN(C)Cc2ccc(Cl)c(Cl)c2)Oc2c(NC(=O)Nc3ccccc3)cccc2C1=O	u	x
CCNC(=O)C[C@H]1CC[C@@H]2[C@H](COC[C@@H](O)CN2C(=O)Nc2cccc(OC)c2)O1	14.0	6.7
Cc1ccccc1S(=O)(=O)N1CCCCN2[C@H](C1)[C@@H](c1ccc(-c3cncnc3)cc1)[C@@H]2CO	15.0	2.0
CCC(=O)N1C[C@H](C)[C@H](OC)CN(C)C(=O)c2ccc(NC(=O)C3CCCCC3)cc2OC[C@@H]1C	-0.6	2.6
Cc1noc(C)c1S(=O)(=O)Nc1ccc2c(c1)C(=O)N([C@@H](C)CO)C[C@H](C)[C@H](CN(C)CC1CCCCC1)OCCCC[C@@H](C)O2	u	x
CC(C)CC#Cc1ccc2c(c1)O[C@@H](CN(C)C(=O)CC1CC1)[C@@H](C)CN([C@@H](C)CO)S2(=O)=O	u	x
CN1C(=O)c2cc(NC(=O)C3CC3)ccc2OC[C@H]2O[C@@H](CC(=O)NCCN3CCCC3)CC[C@H]21	0.2	-6.8
O=S(=O)(c1cccs1)N1CCCCN2[C@H](CO)[C@H](c3ccc(-c4ccccc4)cc3)[C@H]2C1	u	x
O=C(c1ccncc1)N1C[C@H]2[C@@H](c3ccccc31)[C@@H](CO)N2C(=O)Nc1ccc(F)cc1	7.4	-1.7
OC[C@@H]1Nc2ccc(C#Cc3cccc(F)c3)cc2[C@H]2NCC[C@@H]12	-34.2	-30.4
COc1ccc(CN(C)C[C@H]2OCCCC[C@@H](C)Oc3ccc(NC(=O)c4ccncc4)cc3C(=O)N([C@@H](C)CO)C[C@H]2C)cc1	-10.0	-4.3
C[C@@H]1CN([C@H](C)CO)C(=O)c2cc(NC(=O)c3ccncc3)ccc2O[C@@H](C)CCCCO[C@H]1CN(C)Cc1ccccc1	-3.6	-6.6
CCC(=O)N1CC2(C1)[C@@H](c1ccccc1)[C@H](CO)N2CC1CCOCC1	14.1	9.4
CO[C@@H]1CN(C)C(=O)c2cc(NC(=O)NC(C)C)ccc2OC[C@@H](C)N(Cc2ccc(-c3ccccn3)cc2)C[C@@H]1C	-29.7	-33.6
C[C@H](CO)N1C[C@H](C)[C@H](CN(C)S(=O)(=O)c2ccc(Cl)cc2)Oc2c(NC(=O)C3CC3)cccc2C1=O	-9.4	1.2
CNC[C@@H]1Oc2ccc(NC(=O)NC3CCCCC3)cc2C(=O)N([C@@H](C)CO)C[C@H]1C	11.7	9.5
COc1ccc(NC(=O)Nc2ccc3c(c2)C(=O)N([C@H](C)CO)C[C@H](C)[C@H](CN(C)Cc2ccccc2)O3)cc1	-11.2	-6.0
CCCNC(=O)N1CC2(CN(S(=O)(=O)CC)C2)c2c(n(C)c3cc(OC)ccc23)[C@@H]1CO	8.4	9.0
CCCC#Cc1ccc2c(c1)O[C@@H](CN(C)C(=O)c1ccccn1)[C@@H](C)CN([C@@H](C)CO)S2(=O)=O	-15.7	-16.2
Cc1ccc(-c2ccc([C@@H]3[C@H](CO)N4CCCCN(C(=O)Nc5cccc(F)c5)C[C@@H]34)cc2)cc1	u	x
CCCNC(=O)N1CCC2(CC1)CN(C(C)=O)[C@H](CO)c1[nH]c3cc(OC)ccc3c12	11.5	4.2
C/C=C/c1ccc2c(c1)O[C@@H](CN(C)C(=O)Cc1ccccc1)[C@H](C)CN([C@@H](C)CO)S2(=O)=O	-2.7	-1.3
Cc1ccc(S(=O)(=O)N(C)C[C@@H]2OCCCC[C@H](C)Oc3ccc(NC(=O)Nc4ccc(C(F)(F)F)cc4)cc3C(=O)N([C@H](C)CO)C[C@@H]2C)cc1	-34.6	-19.4
C[C@@H]1CN([C@H](C)CO)C(=O)Cc2cc(NC(=O)CCN3CCOCC3)ccc2O[C@H]1CN(C)S(=O)(=O)c1ccccc1	32.0	17.6
CS(=O)(=O)N1[C@H](CO)[C@@H](c2ccc(C#Cc3cccc(F)c3)cc2)[C@@H]1C#N	u	x
CCCN1[C@H](C(=O)NC2Cc3ccccc3C2)[C@@H](CO)[C@@H]2Cn3c(ccc(C4=CCCC4)c3=O)[C@@H]21	-7.2	-4.2
CC(C)(O)C#Cc1ccc([C@@H]2[C@H](CO)N3CCCCN(C(=O)c4cccnc4)C[C@@H]23)cc1	28.2	9.5
CO[C@H]1CN(C)C(=O)c2cc(NC(=O)Nc3cccc(F)c3)ccc2OC[C@@H](C)N(C(=O)Nc2c(C)noc2C)C[C@H]1C	10.8	8.7
C[C@@H]1CN([C@H](C)CO)C(=O)c2cc(NC(=O)NC3CCCCC3)ccc2O[C@@H](C)CCCCO[C@@H]1CN(C)C(=O)Nc1ccc(F)cc1	26.3	14.7
Cc1noc(C)c1NC(=O)N[C@@H]1C=C[C@H](CC(=O)N2CCN(C)CC2)O[C@H]1CO	7.6	3.1
CO[C@@H]1CN(C)C(=O)c2ccc(NC(=O)NC(C)C)cc2OC[C@@H](C)N(C(=O)CC2CC2)C[C@H]1C	-4.6	-12.3
CC(C)CC#Cc1ccc([C@@H]2[C@H](CO)N3C(=O)CN(C(=O)NC4CCCCC4)C[C@@H]23)cc1	-20.1	-12.4
CO[C@@H]1CN(C)C(=O)c2cc(NS(=O)(=O)c3ccc(C)cc3)ccc2OC[C@@H](C)N(Cc2nccs2)C[C@@H]1C	5.0	0.6
CNC[C@@H]1Oc2ccc(NS(=O)(=O)c3cn(C)cn3)cc2CC(=O)N([C@@H](C)CO)C[C@H]1C	12.5	10.3
CN1c2ccc(-c3cccc(F)c3)cc2[C@@H]2[C@@H](CCN2C(=O)C2CCC2)[C@H]1CO	-2.1	0.5
CCC(=O)N1C[C@@H](O)COC[C@@H]2O[C@@H](CC(=O)NCC3CCCCC3)CC[C@H]21	10.0	4.6
CC(=O)N(C)C[C@H]1[C@H](c2ccccc2)[C@@H](CO)N1C(=O)C1CC1	16.5	15.6
C[C@@H]1CN([C@@H](C)CO)C(=O)c2cccc(NC(=O)Nc3ccc(C(F)(F)F)cc3)c2O[C@H]1CN(C)S(=O)(=O)c1cn(C)cn1	5.4	7.3
C[C@@H]1CCCCO[C@H](CN(C)Cc2ccccc2)[C@@H](C)CN([C@@H](C)CO)C(=O)c2cc(NS(=O)(=O)c3ccccc3)ccc2O1	u	x
CO[C@@H]1CN(C)C(=O)c2cc(NC(=O)Nc3ccc(C(F)(F)F)cc3)ccc2OC[C@H](C)NC[C@@H]1C	u	x
CC(=O)N1[C@@H]2Cn3c(cccc3=O)[C@H]1[C@@H](C(=O)N[C@@H](C)c1ccccc1)[C@@H]2CO	11.7	8.5
COc1ccc2c3c([nH]c2c1)[C@H](CO)N(Cc1nccs1)CC31CN(C(=O)C2CCC2)C1	26.8	27.7
O=C(Nc1cccc(Cl)c1)N1C[C@@H]2[C@H](c3ccccc31)[C@H](CO)N2Cc1ccncc1	-1.8	6.1
CN(C)C(=O)c1ccc(-c2ccc([C@@H]3[C@H](CO)N4CCCCN(Cc5cccnc5)C[C@@H]34)cc2)cc1	42.2	8.1
C[C@H]1CN([C@@H](C)CO)C(=O)c2cccc(NC(=O)Nc3ccc(C(F)(F)F)cc3)c2O[C@H]1CN(C)C(=O)Nc1ccccc1	u	x
C[C@H](CO)N1C[C@H](C)[C@H](CN(C)S(=O)(=O)c2ccc(C(F)(F)F)cc2)OCc2ccccc2-c2c(n(C)c3ccccc23)C1=O	u	x
COc1ccc(CN(C)C[C@@H]2Oc3c(NS(=O)(=O)c4ccc(F)cc4)cccc3C(=O)N([C@H](C)CO)C[C@@H]2C)cc1	-12.0	-7.7

New compounds follow:
mol	Vaccinia inh	Vaccinia inh Venus
CCCC#Cc1cnc2c(c1)C(=O)N([C@@H](C)CO)C[C@@H](C)[C@@H](CN(C)CCC)O2	-14.7	-10.7
CO[C@H]1CN(C)C(=O)c2cc(NS(=O)(=O)c3c(C)noc3C)ccc2OC[C@@H](C)NC[C@@H]1C	8.7	8.6
O=C(CCN1CCCCC1)NCC[C@H]1CC[C@H](NC(=O)C2CCOCC2)[C@H](CO)O1	3.2	10.3
O=C(Nc1ccc2c(c1)OCO2)N[C@H]1CC[C@H](CCNC(=O)C2CCOCC2)O[C@@H]1CO	-2.1	-3.0
C[C@@H]1CCCCO[C@H](CN(C)S(C)(=O)=O)[C@@H](C)CN([C@@H](C)CO)C(=O)c2cc(NC(=O)Nc3cccc4ccccc34)ccc2O1	-4.0	4.6
CO[C@H]1CN(C)C(=O)c2ccc(NC(C)=O)cc2OC[C@H](C)N(CCC(F)(F)F)C[C@@H]1C	26.6	8.8
O=C(Nc1cccc(Cl)c1)N[C@H]1CC[C@@H](CCNC(=O)C2CCC2)O[C@H]1CO	-6.4	1.9
O=C(C[C@H]1CC[C@@H]2[C@H](COC[C@H](O)CN2Cc2ccc(Oc3ccccc3)cc2)O1)Nc1nccs1	-34.8	-22.8
C[C@H](CO)N1C[C@H](C)[C@H](CN(C)C(=O)Nc2cccc(C(F)(F)F)c2)OCc2ccccc2-c2c(n(C)c3ccccc23)C1=O	u	x
C/C=C/c1ccc2c(c1)O[C@@H](CN(C)C(=O)c1ccccc1)[C@@H](C)CN([C@H](C)CO)S2(=O)=O	-12.4	-8.3
COc1ccc(C#Cc2cnc3c(c2)C(=O)N([C@H](C)CO)C[C@H](C)[C@H](CN(C)C(=O)c2ccccc2F)O3)cc1	-4.0	-3.2
C[C@@H]1CN([C@H](C)CO)C(=O)c2cc(-c3cccc(C#N)c3)cnc2O[C@@H]1CN(C)Cc1cncnc1	37.6	24.4
CO[C@@H]1CN(C)C(=O)c2ccc(NS(=O)(=O)c3ccccc3)cc2OC[C@@H](C)N(Cc2nccs2)C[C@@H]1C	5.8	8.3
C[C@H](NC(=O)N(C)C[C@H]1OCc2ccccc2-c2ccccc2C(=O)N([C@H](C)CO)C[C@H]1C)c1ccccc1	15.0	11.2
Cc1cc(C(=O)Nc2cccc3c2O[C@H](CN(C)S(=O)(=O)c2ccc(F)cc2)[C@@H](C)CN([C@H](C)CO)C3=O)n(C)n1	12.9	3.5
CCCC(=O)Nc1ccc2c(c1)OC[C@H](C)N(C(=O)c1ccccn1)C[C@H](C)[C@@H](OC)CN(C)C2=O	-3.6	-3.2
C[C@@H]1CN([C@@H](C)CO)C(=O)c2cc(-c3ccc(C#N)cc3)cnc2O[C@@H]1CN(C)C(=O)CN(C)C	17.1	6.7
O=C(Cc1ccncc1)N1CC(=O)N2[C@H](CO)[C@H](c3ccc(C4=CCCC4)cc3)[C@@H]2C1	23.3	11.0
Cc1noc(C)c1NC(=O)Nc1cccc2c1O[C@H](CN(C)C(=O)Nc1cccc3ccccc13)[C@H](C)CN([C@@H](C)CO)C2=O	-28.1	-20.8
CN(C)CC#Cc1ccc([C@H]2[C@H]3CN(C(=O)NC4CCCC4)CCCCN3[C@H]2CO)cc1	5.3	-3.2
O=C(CC(F)(F)F)N1C[C@@H]2[C@H](c3ccccc31)[C@@H](CO)N2C(=O)C1CCCC1	5.5	2.4
CC(C)NC(=O)N(C)C[C@H]1Oc2cc(C3=CCCC3)ccc2S(=O)(=O)N([C@H](C)CO)C[C@H]1C	-3.5	-0.2
C[C@H](CO)N1C[C@H](C)[C@@H](CN(C)Cc2cccnc2)Oc2ncc(-c3ccc(F)cc3)cc2C1=O	-6.8	-7.6
C[C@H]1CN([C@@H](C)CO)C(=O)c2cc(/C=C/c3ccccc3)cnc2O[C@@H]1CN(C)C(=O)Nc1ccccc1F	-23.7	-18.3
COc1cccc(S(=O)(=O)N2CCCCN3[C@H](CO)[C@@H](c4ccc(C#CC(C)C)cc4)[C@H]3C2)c1	u	x
CNC[C@H]1Oc2ccc(NS(=O)(=O)c3ccc(F)cc3)cc2C(=O)N([C@@H](C)CO)C[C@H]1C	13.7	15.5
COc1ccc(S(=O)(=O)N(C)C[C@H]2Oc3ccc(NC(=O)Nc4ccccc4)cc3C(=O)N([C@@H](C)CO)C[C@H]2C)cc1	-8.8	-0.8
Cc1noc(C)c1NC(=O)N[C@@H]1C=C[C@H](CC(=O)N2CCCCC2)O[C@H]1CO	1.4	2.6
CC(=O)N(C)C[C@@H]1Oc2ncc(C#C[C@@H](C)O)cc2C(=O)N([C@H](C)CO)C[C@H]1C	26.5	5.2
C[C@H](NC(=O)C[C@@H]1CC[C@@H](NC(=O)c2cccnc2)[C@H](CO)O1)c1ccccc1	11.3	2.7
C[C@H]1CN([C@@H](C)CO)C(=O)c2cccc(NC(=O)c3nc4ccccc4s3)c2O[C@@H]1CN(C)Cc1ccc(C(=O)O)cc1	18.8	12.8

4 entries from above, sorted by heavy-atom count, high to low.
mol	Vaccinia inh	Vaccinia inh Venus
C[C@@H]1CN([C@H](C)CO)C(=O)c2cc(NC(=O)NC3CCCCC3)ccc2O[C@@H](C)CCCCO[C@@H]1CN(C)C(=O)Nc1ccc(F)cc1	26.3	14.7
C[C@@H]1CN([C@@H](C)CO)C(=O)c2cccc(NC(=O)Nc3ccc(C(F)(F)F)cc3)c2O[C@H]1CN(C)S(=O)(=O)c1cn(C)cn1	5.4	7.3
COc1ccc(NC(=O)Nc2ccc3c(c2)C(=O)N([C@H](C)CO)C[C@H](C)[C@H](CN(C)Cc2ccccc2)O3)cc1	-11.2	-6.0
CCCN1[C@H](C(=O)NC2Cc3ccccc3C2)[C@@H](CO)[C@@H]2Cn3c(ccc(C4=CCCC4)c3=O)[C@@H]21	-7.2	-4.2

Bioassay records deposited in PubChem by Broad Institute.
